Screening results: PubChem, Broad Institute
MLL AF4-AF9 inh – inhibitors of AF4 peptide binding to AF9, primary screen, biochemical, AlphaScreen, biotin-AF4 peptide, FLAG-AF9, single point; inhibition, % at 10 µM; 350,000 tested, 0.47% active; AID 651704, 2012;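 active means every replicate reaching a set inhibition limit, whatever the replicate mean, cut at about 25% in these data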;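 further: 0% = plate neutral control median and 100% = total signal loss; the record names both 10 and 1 µM as test concentration; the first replicate is given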
Target sequence (P42568 whole entry, looked up): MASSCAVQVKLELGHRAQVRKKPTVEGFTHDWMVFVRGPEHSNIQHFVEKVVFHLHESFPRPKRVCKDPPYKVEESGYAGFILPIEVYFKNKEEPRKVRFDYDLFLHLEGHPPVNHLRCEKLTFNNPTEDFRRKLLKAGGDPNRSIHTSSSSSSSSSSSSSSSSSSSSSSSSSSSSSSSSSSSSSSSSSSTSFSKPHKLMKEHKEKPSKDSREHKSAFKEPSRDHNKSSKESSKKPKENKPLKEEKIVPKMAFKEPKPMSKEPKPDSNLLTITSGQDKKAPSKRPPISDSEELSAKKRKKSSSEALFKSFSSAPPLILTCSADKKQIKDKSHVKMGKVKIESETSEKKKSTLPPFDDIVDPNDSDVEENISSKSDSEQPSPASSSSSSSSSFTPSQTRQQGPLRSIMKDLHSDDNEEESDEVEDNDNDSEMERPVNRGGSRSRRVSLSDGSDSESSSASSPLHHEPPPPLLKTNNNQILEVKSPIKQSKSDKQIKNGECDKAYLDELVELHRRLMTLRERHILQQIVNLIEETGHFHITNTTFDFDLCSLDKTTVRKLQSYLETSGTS
FGF22 binding – binders of human FGF22 protein, primary screen, FGF22 synaptogenesis inhibitor project, biophysical, thermal shift, single point; Fibroblast growth factor 22 (Homo sapiens), Q9HCT0; recombinant FGF22 thermal shift, SYPRO orange fluorescence; percent of sucrose octasulfate shift, DMSO zero; calls only at 9.99 µM; 340,000 tested, 1.5% active; AID 651658, 2012;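 active means melting point raised past a set limit in the mean and every replicate; three in four hits are not shown here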
Target sequence (Q9HCT0 whole entry, looked up): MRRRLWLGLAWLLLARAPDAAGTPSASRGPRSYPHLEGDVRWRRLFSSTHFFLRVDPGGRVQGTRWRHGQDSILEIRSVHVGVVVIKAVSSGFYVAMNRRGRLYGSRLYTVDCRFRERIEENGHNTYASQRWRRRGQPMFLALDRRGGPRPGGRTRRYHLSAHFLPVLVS
rRNA inh HTS – reduced GFP signal of wild-type E. coli, primary screen, bacterial rRNA inhibitor project, GFP/RFP fluorescence, OD600, single point; 350,000 tested, 1.6% active; GFP signal change (wild-type ribosome), % (concentration not given with the values); E. coli WT GFP vs humanized-ribosome RFP mutants, 24 h; stronger effect = lower value; DMSO median 0, no signal -100;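 active means significant combined selectivity score with lowered wild-type GFP, culture density cut under 30%, mutant RFP and density less affected; inactive means any of these conditions unmet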; further: one replicate is shown; some compounds called inactive have numbers as strong as hits
rRNA inh HTS OD600 – second read-out of rRNA inh HTS, no call of its own (marks repeat the call); OD600 change, %; measured here: OD600 growth;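 optical density of the mix in the first replicate; 0 = DMSO median and -100 = no signal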
rRNA inh HTS RFP – second read-out of rRNA inh HTS, no call of its own (marks repeat the call); RFP signal change, %; measured here: RFP humanized mutant strains;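 first replicate; 0 = DMSO median and -100 = no signal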
The depositor's hits bear a star; i = inactive; & = joins results of further samples. Not all compounds are listed; rates above refer to the full screens.

SMILES	MLL AF4-AF9 inh	FGF22 binding	rRNA inh HTS	rRNA inh HTS OD600	rRNA inh HTS RFP
CC(=O)N1[C@@H]2Cn3c(ccc(-c4ccccc4F)c3=O)[C@H]1[C@@H](C(=O)N1CCOCC1)[C@@H]2CO	-2.4	i	0.3	-1.9	-1.4
CNC[C@@H]1OCCCC[C@H](C)Oc2ccc(NC(=O)c3ccccc3)cc2C(=O)N([C@H](C)CO)C[C@H]1C	-13.0	i	9.0	2.9	-1.7
C[C@H]1CN([C@@H](C)CO)C(=O)Cc2cc(NC(=O)Nc3cccc4ccccc34)ccc2O[C@@H]1CN(C)Cc1ccc(Oc2ccccc2)cc1	-1.6	i	6.3	8.3	0.3
NC(CSC1(c2ccc(F)cc2)c2ccccc2-c2ccccc21)C(=O)O (stereo not given)	-2.5	i	-49.5	-77.7	-12.7
C[C@@H]1CCCCO[C@H](CN(C)Cc2ccc(C(F)(F)F)cc2)[C@H](C)CN([C@H](C)CO)C(=O)c2cc(NS(=O)(=O)c3cn(C)cn3)ccc2O1	7.6	i	0.1	-6.8	1.3
COCC#Cc1cnc2c(c1)C(=O)N([C@@H](C)CO)C[C@@H](C)[C@@H](CN(C)C(=O)Cc1cccnc1)O2	-5.9	i	6.8	9.6	-1.7
Cc1noc(C)c1NC(=O)N(C)C[C@H]1Oc2ncc(C#CCC(C)C)cc2C(=O)N([C@H](C)CO)C[C@@H]1C	-1.2	i	5.2	19.1	1.1
CO[C@H]1CN(C)C(=O)c2ccc(NC(=O)C3CC3)cc2OC[C@@H](C)N(C(=O)Cc2ccccn2)C[C@@H]1C	-1.4	i	-0.2	-8.4	-0.7
C[C@]12c3[nH]c4ccc(Cl)cc4c3CCN1C(=O)[C@@H](CC(=O)NCCC1=CCCCC1)C[C@@H]2C(=O)N1CCOCC1	5.2	i	-9.8	-22.0	3.0
C[C@H](CO)N1C[C@H](C)[C@@H](CN(C)Cc2ccccc2)Oc2ncc(Br)cc2C1=O	0.5	i	8.9	9.6	-3.0
CC(C)NC(=O)N(C)C[C@H]1Oc2ccc(NC(=O)Nc3ccc4c(c3)OCO4)cc2C(=O)N([C@@H](C)CO)C[C@@H]1C	-0.7	i	3.6	8.6	-3.4
CCOc1ccc(OCC(=O)Nc2cccc(S(=O)(=O)NC3=NCCC3)c2)cc1	2.2	i	-3.3	5.5	-2.2
O=C(C1CCOCC1)N1C[C@H]2[C@@H](c3ccccc31)[C@@H](CO)N2C(=O)c1ccccc1	-2.2	i	7.0	9.2	-0.2
CSC[C@H]1CN(CCc2ccccc2)C(=O)[C@@H]1CC(=O)Nc1ccc(Br)cc1	4.3	i	-39.6	-74.4	-4.8
O=C(C[C@H]1C=C[C@@H](NC(=O)Nc2ccccc2F)[C@@H](CO)O1)NCc1ccc(-c2ccccc2)cc1	2.3	i	-10.9	-15.4	2.1
C[C@H](CO)N1C[C@H](C)[C@@H](CN(C)Cc2ccncc2)OCCCC[C@H](C)Oc2ccc(NC(=O)Cc3ccccc3)cc2C1=O	3.3	i	-3.4	-4.2	1.5
O=S(=O)(Cc1ccccc1)N1CCCCN2[C@H](CO)[C@H](c3ccc(C#Cc4ccccc4)cc3)[C@@H]2C1	-3.5	i	2.2	4.4	0.4
C[C@H](CO)N1C[C@H](C)[C@H](CN(C)Cc2ccc(Oc3ccccc3)cc2)Oc2ncc(-c3cncnc3)cc2C1=O	4.1	i	0.0	-6.9	3.8
CC(C)NC(=O)N1CC2(C1)[C@H](c1ccccc1)[C@H](CO)N2C(=O)c1ccccn1	-2.7	i	1.2	4.6	-3.4
Cc1cccc(-c2ccc([C@H]3[C@@H](CO)N4CCCCN(Cc5cccnc5)C[C@H]34)cc2)c1	14.0	i	1.6	-42.3	14.4

Reformatted: results already given.
Compound | MLL AF4-AF9 inh | FGF22 binding | rRNA inh HTS | rRNA inh HTS OD600 | rRNA inh HTS RFP
CC(C)NC(=O)N1CC2(C1)[C@H](c1ccccc1)[C@H](CO)N2C(=O)c1ccccn1 | -2.7 | i | 1.2 | 4.6 | -3.4
Cc1cccc(-c2ccc([C@H]3[C@@H](CO)N4CCCCN(Cc5cccnc5)C[C@H]34)cc2)c1 | 14.0 | i | 1.6 | -42.3 | 14.4

More results
SMILES	MLL AF4-AF9 inh	FGF22 binding	rRNA inh HTS	rRNA inh HTS OD600	rRNA inh HTS RFP
O=C(C=Cc1ccco1)c1ccc2ccccc2c1	3.3	i	-7.3	8.7	0.3
N#Cc1ccc(-c2ccc3c(c2)[C@H]2[C@H](CCN2C(=O)c2ccccc2F)[C@@H](CO)N3)cc1	-3.6	i	-25.8	-61.5	33.9
O=C(C[C@H]1C[C@@H]2c3cc(NC(=O)c4ccc5c(c4)OCO5)ccc3O[C@@H]2[C@@H](CO)O1)NCc1cc(F)ccc1F	-3.1	i	-8.0	-19.0	2.7
O=C(C[C@@H]1C[C@@H]2c3cc(NC(=O)C4CCC4)ccc3O[C@@H]2[C@@H](CO)O1)NCc1ccc(-c2ccccc2)cc1	-2.9	i	-6.8	-3.8	1.2
C[C@@H]1CCCCO[C@H](CN(C)C(=O)C2CCCCC2)[C@@H](C)CN([C@H](C)CO)C(=O)c2cc(NC(=O)c3ccncc3)ccc2O1	-5.7	i	-2.3	-1.7	1.0
C[C@H]1CCCCO[C@H](CN(C)C(=O)Nc2cccc3ccccc23)[C@@H](C)CN([C@@H](C)CO)C(=O)c2cc(NC(=O)C3CCCCC3)ccc2O1	8.2	i	0.8	-0.6	3.4
O=C(OCc1ccccc1)N1CCC2CC1c1ccc(/C=C/CCCCl)cc12 (stereo not given)	0.9	i	-9.0	-0.9	3.0
O=C(C[C@H]1C[C@@H]2c3cc(NC(=O)Nc4ccc(C(F)(F)F)cc4)ccc3O[C@@H]2[C@@H](CO)O1)NCCc1ccccc1	3.0	i	-44.9	-51.9	33.8
C[C@H](CO)N1C[C@H](C)[C@H](CN(C)C(=O)Nc2ccc3c(c2)OCO3)Oc2cc(C#Cc3ccncc3)ccc2S1(=O)=O	8.4	i	-4.8	-3.6	0.8
COc1cccc(S(=O)(=O)N(C)C[C@@H]2Oc3ncc(C#Cc4ccc(C(F)(F)F)cc4)cc3C(=O)N([C@H](C)CO)C[C@@H]2C)c1	0.8	i	6.5	5.8	-2.6
C[C@@H]1CN([C@@H](C)CO)C(=O)c2cc(-c3cccc(C#N)c3)cnc2O[C@@H]1CN(C)C(=O)C1CCC1	2.3	i	0.9	4.2	-3.4
C[C@@H]1CN([C@H](C)CO)C(=O)c2cc(NS(=O)(=O)c3ccc(F)cc3)ccc2O[C@H]1CN(C)C(=O)Nc1ccccc1	-1.1	i	-3.1	-2.5	-0.9
C[C@@H]1CN([C@@H](C)CO)C(=O)CCCn2cc(nn2)CO[C@@H]1CN(C)CC1CCCCC1	-1.1	i	0.6	1.9	-0.2
CCCCCC(=O)N1C[C@@H](O)[C@H](n2cc(-c3ccc(F)cc3)nn2)C[C@@H]1c1ccc(C)cc1	2.9	i	-27.6	-29.6	0.4
C[C@H]1CN([C@@H](C)CO)C(=O)c2cc(NC(=O)Nc3cccc4ccccc34)ccc2O[C@H]1CN(C)S(C)(=O)=O	2.1	i	-2.4	-1.3	-0.4
CO[C@H]1CN(C)C(=O)c2ccc(NC(=O)c3ccccc3)cc2OC[C@H](C)N(C(=O)C2CC2)C[C@@H]1C	-1.6	i	-4.5	-3.0	-1.9
C[C@@H]1CN([C@@H](C)CO)C(=O)c2cc(NS(C)(=O)=O)ccc2O[C@@H]1CN(C)Cc1ccc(-c2ccccc2)cc1	6.5	i	2.8	-4.4	2.4
O=C(Nc1ccccc1)[C@H]1[C@H](CO)[C@H]2Cn3c(cccc3=O)[C@H]2N1C(=O)C1CC1	0.9	i	3.1	8.3	-2.3
C[C@@H](O)C#Cc1ccc([C@H]2[C@H]3CN(C(=O)c4ccncc4)CCCCN3[C@H]2CO)cc1	0.6	i	4.4	10.9	0.2
O=C(N[C@H]1CC[C@@H](CCn2cc(C3CC3)nn2)O[C@H]1CO)c1cccnc1	-1.2	i	0.1	-0.5	0.1
COC(=O)N(C)C[C@H]1OCc2ccccc2-c2ccccc2C(=O)N([C@@H](C)CO)C[C@H]1C	-3.6	i	6.4	12.8	-3.4
Cc1noc(C)c1S(=O)(=O)Nc1ccc2c(c1)C(=O)N([C@H](C)CO)C[C@H](C)[C@@H](CN(C)C(=O)NC1CCCCC1)OCCCC[C@@H](C)O2	-4.4	i	1.7	6.4	-1.9
CN1C(=O)c2cc(NC(=O)Cc3ccccc3)ccc2OC[C@@H]2O[C@@H](CC(=O)O)CC[C@@H]21	-1.9	i	3.2	1.9	1.0
Cc1noc(C)c1S(=O)(=O)Nc1ccc2c(c1)C(=O)N([C@H](C)CO)C[C@H](C)[C@H](CN(C)Cc1ccccc1)OCCCC[C@H](C)O2	1.8	i	-1.6	-4.2	-0.9
Nc1ccn(C2OC(CCl)C(O)C2O)c(=O)n1 (stereo not given)	2.4	i	14.2	13.6	2.0
CC(C)C[C@@H](CNCC(=O)[C@H](Cc1ccccc1)NC(=O)c1[nH]cnc1C(=O)N[C@H](CN)CC(C)C)NC(=O)c1nc[nH]c1C(=O)N[C@@H](CC(=O)O)C(=O)O	1.8	i	20.3	19.9	2.5
COc1ccc(NC(=O)N2C[C@@H](O)COC[C@H]3O[C@H](CC(=O)NCc4ccncn4)CC[C@@H]32)cc1	-0.2	i	-1.6	13.6	0.3
COCCNC(=O)C1(C)CCCN(C(=O)c2ccc3c(c2)CCO3)C1 (stereo not given)	1.2	i	4.5	10.3	-2.8
COc1ccc(NC(=O)N(C)C[C@@H]2OCCCC[C@@H](C)Oc3ccc(NC(=O)C4CCCCC4)cc3C(=O)N([C@@H](C)CO)C[C@H]2C)cc1	-0.6	i	-1.1	5.8	-1.0
C[C@@H]1CN([C@H](C)CO)C(=O)Cc2cc(NS(=O)(=O)c3ccc(Cl)cc3)ccc2O[C@H]1CN(C)C(=O)Nc1cccc2ccccc12	0.4	i	1.4	-2.8	0.9

For convenience, 2 of the compounds above.
SMILES	MLL AF4-AF9 inh	FGF22 binding	rRNA inh HTS	rRNA inh HTS OD600	rRNA inh HTS RFP
COC(=O)N(C)C[C@H]1OCc2ccccc2-c2ccccc2C(=O)N([C@@H](C)CO)C[C@H]1C	-3.6	i	6.4	12.8	-3.4
Cc1noc(C)c1S(=O)(=O)Nc1ccc2c(c1)C(=O)N([C@H](C)CO)C[C@H](C)[C@@H](CN(C)C(=O)NC1CCCCC1)OCCCC[C@@H](C)O2	-4.4	i	1.7	6.4	-1.9

Continued:
SMILES	MLL AF4-AF9 inh	FGF22 binding	rRNA inh HTS	rRNA inh HTS OD600	rRNA inh HTS RFP
CN1C(=O)c2cc(NC(=O)Cc3ccccc3)ccc2OC[C@H]2O[C@H](CC(=O)NCC3CC3)CC[C@H]21	-1.8	i	3.2	-2.3	-0.4
CCS(=O)(=O)NC(=O)C1(C)CCN1C(=O)Cc1ccc(Cl)cc1Cl (stereo not given)	-5.2	i	5.4	7.9	-1.6
COc1ccccc1C#Cc1ccc2c(c1)O[C@H](CN(C)Cc1cncnc1)[C@H](C)CN([C@H](C)CO)S2(=O)=O	5.5	i	-10.3	-22.1	18.1
COCCCNC(=O)[C@@H](Cc1ccccc1)NC(=O)CC[C@H]1O[C@@H](n2ccc(=O)[nH]c2=O)[C@H](O)[C@@H]1O	0.6	i	15.8	2.5	4.6
C[C@@H]1CN([C@@H](C)CO)C(=O)CCCn2cc(nn2)CO[C@@H]1CN(C)Cc1ccc2c(c1)OCO2	0.8	i	-1.7	3.7	-1.4
COCC#Cc1ccc([C@H]2[C@@H](CO)N3CCCCN(Cc4cncnc4)C[C@H]23)cc1	4.4	i	3.1	16.4	2.8
COc1cccc(C(=O)c2ccccc2C(=O)O)c1	-0.6	i	9.3	9.9	1.0
CO[C@H]1CN(C)C(=O)c2cc(NC(=O)c3cc(C)on3)ccc2OC[C@H](C)N(C(=O)C2CC2)C[C@H]1C	-1.0	i	1.5	2.8	-1.9
CCOC(=O)N(C)C[C@H]1OCc2cn(nn2)CCCC(=O)N([C@@H](C)CO)C[C@@H]1C	-1.1&-0.7	i	1.9&9.4	-2.0&9.4	-0.5&-2.4
COC(=O)[C@@]1(Cc2ccc(F)cc2)[C@H]2c3cc(C(=O)N4CCCC4)n(Cc4ccc(C)c(F)c4F)c3C[C@H]2CN1C(=O)c1ccccc1	5.2	i	23.6	14.1	6.4
CO[C@@H]1CN(C)C(=O)c2cc(NC(=O)C3CC3)ccc2OC[C@@H](C)N(Cc2cc(F)ccc2F)C[C@@H]1C	2.3	i	-6.8	-24.6	0.5
O=C(NCC[C@@H]1CC[C@H](NC(=O)C2CCCCC2)[C@H](CO)O1)c1cnccn1	-3.0	i	2.2	20.4	-1.6
O=C(C[C@@H]1CC[C@@H]2[C@H](COC[C@@H](O)CN2C(=O)Nc2ccc(C(F)(F)F)cc2)O1)NCCc1ccncc1	-0.7	i	-58.0	-80.4	-18.9
CCN(CC(=O)Nc1ccc(NC(C)=O)cc1)C(=O)CCN1C(=O)C2CC=CCC2C1=O (stereo not given)	-28.6	i	8.6	8.4	0.2
C[C@@H]1CN([C@@H](C)CO)C(=O)c2cccc(NC(=O)Nc3ccc4c(c3)OCO4)c2O[C@H]1CN(C)S(=O)(=O)c1cccs1	2.0	i	-4.6	-5.8	-2.5
